# D2 PAM: potentiates the human D2 dopamine receptor allosterically. DiscoveRx D2 beta-arrestin cells, luminescence, 90 min; 100% = 57 uM dopamine signal. potentiation, % (test concentration not listed). 360,000 compounds, 0.23% hits. AID 624464; active = potentiation of 50% or more; inconclusive = 30% to 50%; inactive = 30% or less;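 note: compound concentration not given in the record; tested on top of an EC20 dose of dopamine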
#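 PathHunter beta-arrestin assay in DiscoveRx D2 cells. Compounds were added with an EC20 of dopamine (50 nM final) for 90 min at 37 deg C. Luminescence was read 1 h after detection reagent, with 57 uM dopamine as the EC100 control.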
# Six1-Eya2 blk: Six1/Eya2 interaction inhibition. 360,000 compounds, 0.56% hits. Q15475+O00167. activity change, % (concentration not given with the values). AlphaScreen GST-Six1/His-Eya2 binding, biochemical; active compounds read low; control for the full effect not named in the record; in the data active = activity change below about -65%; inconclusive = about -30% to -65%; inactive = above about -30%; note: % is set by controls: 0 for no effect and ±100 for the full control effect
# Target sequence (O00167 whole entry, looked up): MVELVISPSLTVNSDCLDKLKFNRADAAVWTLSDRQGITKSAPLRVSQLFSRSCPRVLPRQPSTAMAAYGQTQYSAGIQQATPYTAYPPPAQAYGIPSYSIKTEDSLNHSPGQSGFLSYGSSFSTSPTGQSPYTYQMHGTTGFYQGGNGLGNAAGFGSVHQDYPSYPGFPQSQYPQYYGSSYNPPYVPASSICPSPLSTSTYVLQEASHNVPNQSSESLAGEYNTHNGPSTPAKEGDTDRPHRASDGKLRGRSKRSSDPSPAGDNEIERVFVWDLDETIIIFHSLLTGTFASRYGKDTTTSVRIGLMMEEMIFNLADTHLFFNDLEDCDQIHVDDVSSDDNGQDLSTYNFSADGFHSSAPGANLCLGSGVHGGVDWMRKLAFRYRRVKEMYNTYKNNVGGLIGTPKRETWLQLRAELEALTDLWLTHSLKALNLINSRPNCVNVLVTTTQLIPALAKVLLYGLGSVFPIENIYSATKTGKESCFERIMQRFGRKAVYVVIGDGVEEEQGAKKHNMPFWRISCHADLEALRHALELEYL
# Target sequence (Q15475 whole entry, looked up): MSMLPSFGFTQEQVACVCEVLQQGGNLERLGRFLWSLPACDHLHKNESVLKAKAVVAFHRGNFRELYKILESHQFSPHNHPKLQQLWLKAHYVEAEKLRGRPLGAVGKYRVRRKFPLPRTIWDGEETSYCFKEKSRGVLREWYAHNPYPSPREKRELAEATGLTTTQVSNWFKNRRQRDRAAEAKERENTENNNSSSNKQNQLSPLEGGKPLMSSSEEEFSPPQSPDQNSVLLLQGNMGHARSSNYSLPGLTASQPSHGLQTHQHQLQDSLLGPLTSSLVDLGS
#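 AlphaScreen with GST-Six1 and His-Eya2 (5X mix: 250 nM and 500 nM), glutathione donor and nickel acceptor beads; buffer 50 mM Tris pH 8.0, 300 mM NaCl, 1 mM TCEP; 1 h at 37 C in the dark.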
# CtBP-E1A blk: CtBP/E1A binding inhibition; AlphaScreen GST-E1A/His-CtBP binding, 1536-well; active compounds read low; control for the full effect not named in the record; activity change, % (concentration not given with the values); 340,000 compounds, 0.49% hits; in the data active means activity change below about -65%; inconclusive means about -30% to -65%; inactive means above about -30%; note: % is set by controls: 0 for no effect and ±100 for the full control effect
#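 Steps: dispense buffer (Tris pH 8.0, NaCl 300 mM, TCEP 1 mM, BSA, Tween 20); add 5X protein mix (GST-E1A, His-CtBP, 125 nM each); pin 23 nL compound; 2 h at 37 °C, dark; add 5X beads (50 ug/mL); 1 h; read.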
# gsp agonist: activates gsp, the McCune-Albright syndrome mutation; gsp mutant cells, cAMP HTRF, 30 min; control for the full effect not named in the record; 340,000 compounds, 0.13% hits; Potency, µM (titrated, usually from 76.9 µM), without a hit: top-dose activation (cAMP increase), most hits filed as activators; active = well fitted activation curve with a large enough effect; inconclusive = small, poorly fitted or top-dose-only effect, or another doubt; inactive = no such curve, though single readings can be large or run the other way; cell line not stated here;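 note: phosphodiesterase inhibitor Ro 20-1724 added with compounds to block cAMP breakdown; potency is the fitted concentration of half-maximal effect; nearly all actives have a fitted effect of over 60% in size; about a fifth of the inactives were tested at one dose only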
#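 Cells in DMEM/10% FBS with G418 were pretreated with compounds in DMSO plus […] (300 uM stock) for 30 min at 37C. cAMP was measured by HTRF (cAMP-d2 plus anti-cAMP antibody-K) after 30 min at room temperature.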
# D2 agonist: human D2 receptor agonism in beta-arrestin assay; P14416; DiscoveRx PathHunter D2 beta-arrestin, luminescence, 90 min; 100% = 57 uM dopamine signal; activation, % (no concentration beside the values); 360,000 compounds, 0.084% hits; AID 624465; in the data active = activation above about 40%; inconclusive = about 15% to 40%; inactive = below about 15%; note: compound concentration not given in the record; the text of the record calls up to 30% inactive
#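 Agonist mode: compounds alone added to overnight-plated D2 PathHunter cells for 90 min at 37 C, with 57 uM final dopamine (EC100) defining full response. Beta-arrestin recruitment detected by chemiluminescent reagent, read after 1 h at ambient temperature.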
# gsp antag: gsp mutant antagonism; gsp-mutant cells, cAMP HTRF, 30 min; control for the full effect not named in the record; Potency, µM (highest dose often 76.9 µM), for inactives: top-dose activity change, negative = inhibition, actives largely listed as inhibitors; 340,000 compounds, 0.4% hits; AID 624288; active = falling curve of any shape with a large fitted effect; inconclusive = falling curve, mostly with a smaller effect; inactive = flat or rising curve; cell line not stated here;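 note: intracellular cAMP measured with PDE inhibitor Ro 20-1724 present during compound exposure; potency is the fitted concentration of half-maximal effect; % is set by controls: 0 for no effect and ±100 for the full control effect; nearly all actives have a fitted effect of over 65% in size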
#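 Cells, 2000/well, grown 16–24 h in DMEM 10% FBS with 0.5 mg/ml G418, then compounds plus […] (300 uM addition stock), 30 min at 37C. cAMP read by HTRF (cAMP-d2 and anti-cAMP antibody-K in lysis buffer) after 30 min RT.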
# Active calls of the source: *; ? = inconclusive; · = no result given; [ ] = another dose, or the depositor's remark.
No.	smiles	D2 PAM	Six1-Eya2 blk	CtBP-E1A blk	gsp agonist	D2 agonist	gsp antag
1	Oc1ccc(/C=N/NC2=NCCCCC2)c(O)c1	13	0	-6	-45%[inhibitor]	4.7	5%
2	Cc1cccnc1NC(=O)Nc1cccc(C(F)(F)F)c1	-7	4	2	15%	-1.6	6%
3	O=C(NNC(=O)c1ccc(SCC2CCCO2)c([N+](=O)[O-])c1)c1ccc(Cl)c([N+](=O)[O-])c1 (stereo not drawn)	-24	-4	-9	-16%	-4.5	-23%
4	CCC(C)Sc1nc2c(c(=O)[nH]c(=O)n2C)n1C (stereo not drawn)	-14	7	8	0%	-1.7	11%
5	O=C(N(c1ccccn1)c1ccccn1)C12CC3CC(CC(Cl)(C3)C1)C2	-4	-2	-9	4%[15.4 µM]	3.1	20%
6	COC(=O)c1cnc2c(c1C(=O)OC)c(=O)n(C)c(=O)n2C	-1	8	-1	18%	1.0	10%
7	Cc1cccn2c(=O)c(C=NCCO)c(NCc3ccco3)nc12	-9	-4	-16	8%	-1.3	1%
8	O=C1c2ccccc2S(=O)(=O)N1CCCN1C(=O)c2ccccc2S1(=O)=O	-19	4	7	23%[15.4 µM]	-0.2	-3%

# A few values from the entries so far.
# Under D2 agonist, O=C(NNC(=O)c1ccc(SCC2CCCO2)c([N+](=O)[O-])c1)c1ccc(Cl)c([N+](=O)[O-])c1 (stereo not drawn) is entered as -4.5
# Under CtBP-E1A blk, O=C(N(c1ccccn1)c1ccccn1)C12CC3CC(CC(Cl)(C3)C1)C2 is entered as -9
# Under Six1-Eya2 blk, CCC(C)Sc1nc2c(c(=O)[nH]c(=O)n2C)n1C (stereo not drawn) is entered as 7
# Under gsp antag, O=C1c2ccccc2S(=O)(=O)N1CCCN1C(=O)c2ccccc2S1(=O)=O is entered as -3%

# (further entries)
No.	smiles	D2 PAM	Six1-Eya2 blk	CtBP-E1A blk	gsp agonist	D2 agonist	gsp antag
9	Cc1cc(NS(=O)(=O)c2ccc(NC(=O)c3cnc4scc(C)n4c3=O)cc2)nc(C)n1	-7	0	-13	-1%	-7.3	-7%
10	CCOc1cc(S(=O)(=O)NC2CCCCC2)ccc1F	-5	2	4	-43%[inhibitor]	-2.2	7%
11	Cc1cccc(-n2nc3c(c2NC(=O)c2ccc(S(=O)(=O)N4CCOCC4)cc2)CSC3)c1C	-19	-2	-8	-35%[inhibitor]	-2.6	1%
12	O=C(CCN1C(=O)[C@@H]2Cc3ccccc3CN2C1=O)N[C@@H](C(=O)O)c1ccccc1	-1	3	6	·	-2.0	8%
13	COc1ccc(CNC(=O)C(C)OC(=O)CO/N=C(\C)c2ccc3c(c2)OCO3)cc1 (stereo not drawn)	-4	-2	-5	-22%[15.4 µM]	1.2	-9%
14	Nc1nnc(SCC(=O)OCC(=O)c2ccccc2Br)s1	-12	2	3	1%[15.4 µM]	-9.1	-19%
15	CCN(CC)C(=O)c1cc(Cl)ccn1	7	-4	-4	-23%[15.4 µM]	-6.7	5%
16	COc1ccc(C=C2CCc3ccccc3C2=O)cc1	-2	-1	4	·	-3.8	·
17	C=CCOc1ccc(/C(O)=C2/C(=O)C(=O)N(CCCn3ccnc3)C2c2cccs2)cc1 (stereo not drawn)	-12	0	8	?	0.0	12%
18	N/C(=N\OC(=O)COc1ccc2ccccc2c1)c1ccncc1	-8	13	·	-21%	-6.0	-17%
19	CCOC(=O)c1ccc(S(=O)(=O)NC2CC2)cc1	-8	6	3	28%[15.4 µM]	-2.3	9%
20	CCc1nnc(NS(=O)(=O)c2ccc(NC(=S)NC(=O)c3ccc(OC)cc3)cc2)s1	-5	14	-12	-58%[inhibitor]	-4.9	-23%
21	CCCn1cc(NC(=O)C2CC(c3cccc(Br)c3)=NO2)cn1 (stereo not drawn)	-4	2	12	-21%	-1.7	-2%
22	CC(=O)c1c(O)cc(C)n(Cc2ccccc2)c1=O	-5	2	8	20%	-3.6	10%
23	CC1CCCC(C)N1/N=C/c1cc(Br)cc(Br)c1O (stereo not drawn)	6	-2	6	12%	-1.3	2%
24	Cc1nc(COc2cccc(Cl)c2)sc1C(=O)/C=C/N(C)C	-6	-13	7	-2%[15.4 µM]	-3.6	-14%
25	Cc1n[nH]c(=O)nc1NCC1CCCO1 (stereo not drawn)	1	6	5	19%	1.7	9%
26	COc1ccc(C2c3ccc(O)cc3Oc3ncn4nc(-c5cccnc5)nc4c32)cc1OC (stereo not drawn)	4	-15	-11	?	-1.4	9%
27	COCCn1c(SCc2nc3cc(OC)c(OC)cc3c(=O)[nH]2)nnc1-c1ccncc1	-9	18	-3	29%	-1.1	12%
28	O=C(CSc1nccn1-c1ccccc1)NO	4	3	9	9%	-0.4	-15%
29	Cc1cc(C)c(C)c(S(=O)(=O)N[C@@H](C)C(=O)OCC(=O)NC2CCCC(C)C2C)c1C (stereo partly drawn)	-18	5	-6	?	-0.7	-9%
30	Cc1ccc(C(=O)C(C)OC(=O)c2ccccc2[N+](=O)[O-])cc1 (stereo not drawn)	-21	-8	-27	-4%[15.4 µM]	1.8	4%
31	Brc1cccc(CNn2cnnc2)c1	0	39	-3	-21%	-4.9	1%
32	CC1CCCC(C)N1C(=O)COC(=O)c1ccc2ccccc2n1 (stereo not drawn)	6	6	14	-32%[inhibitor]	0.1	1%
33	Cc1ccc(S(=O)(=O)CCC(=O)OCC(=O)c2ccc(F)cc2)cc1	-3	1	6	-22%	1.7	-21%
34	CN(CCC1CCCCO1)C(=O)CCc1nnc(C2CCCCC2)o1 (stereo not drawn)	-3	-3	·	-2%	-3.1	10%
35	CC(=O)OCC(=O)c1ccc2ccn(C(C)=O)c2c1	-11	3	2	-6%	-2.6	-2%
36	Cc1ccc(N2C(=O)N(CC(=O)NCc3ccc(Cl)cc3)C(=O)C2C)cc1 (stereo not drawn)	-24	-2	5	-4%	-2.3	-20%
37	CC(C)(C)c1ccc(NC(=O)CC2(C(F)(F)F)OCCO2)cc1	-16	7	8	-16%	-0.7	8%
38	CN(CC(=O)Nc1cccc(F)c1)CC(=O)N(C)c1c(N)n(Cc2ccccc2)c(=O)[nH]c1=O	-1	6	1	5%	3.5	4%
39	CC(C(=O)Nc1ccccc1-c1ccccc1)N(C)Cc1nc2ccccc2c(=O)[nH]1 (stereo not drawn)	-4	-7	·	-6%[15.4 µM]	4.0	-9%
40	CCS(=O)(=O)Nc1ccc(-c2nnc(SCC(=O)c3cccc(OC)c3)o2)cc1	-1	-2	-1	21%	0.4	35%[activator]

# Limited to D2 agonist, for some of the entries so far:
no.	Molecule	D2 agonist
21	CCCn1cc(NC(=O)C2CC(c3cccc(Br)c3)=NO2)cn1 (stereo not drawn)	-1.7
22	CC(=O)c1c(O)cc(C)n(Cc2ccccc2)c1=O	-3.6

# Following part
No.	smiles	D2 PAM	Six1-Eya2 blk	CtBP-E1A blk	gsp agonist	D2 agonist	gsp antag
41	COC(=O)Cn1cnc2c1c(=O)n(C)c(=O)n2C	-24	18	28	36%	-4.7	36%
42	O=C(COc1ccc(S(=O)(=O)NCc2ccccc2)cc1Cl)NCc1ccccn1	4	-14	0	11%[15.4 µM]	-1.2	-15%
43	Cc1cnc(Nc2nc3ccccc3o2)nc1C(=O)Nc1cccc(C(F)(F)F)c1	0	-5	-16	-18%	-3.3	15%
44	COc1ccc(C(O)c2nc(-c3ccc4c(c3)OCO4)cs2)cc1 (stereo not drawn)	-2	0	3	·	-1.8	·
45	O=C(COc1ccccc1)NCC(=O)N/N=C/c1ccc(O)cc1O	-6	-80*	-91*	5%[15.4 µM]	-2.6	9%
46	CC(=O)Nc1nnc(S(=O)(=O)N2CCN(c3ccc(Cl)cc3[N+](=O)[O-])CC2)s1	-18	6	-23	5%	-2.7	-10%
47	Cc1nn(C)c(C)c1S(=O)(=O)N1CCCC(C(=O)NCCc2ccc(Cl)cc2)C1 (stereo not drawn)	-3	1	-3	6%	-0.9	5%
48	Cc1ccc(S(=O)(=O)N2C[C@@H]3[C@H]4CC[C@H](C4)[C@@H]3[C@@H](C)[C@@H]2c2ccco2)cc1	·	6	8	·	-2.2	0%
49	Cc1ccc(C)c(OCCC(=O)OCC(=O)NC(=O)NC2CCCCC2)c1	3	1	1	-11%	5.2	7%
50	CC(NC(=O)CCn1c(=S)[nH]c2ccsc2c1=O)c1ccccc1 (stereo not drawn)	-6	11	10	25%[15.4 µM]	-4.4	-15%
51	COC(=O)C1(C(F)(F)F)N=C(N(C)C)OC(N(C)C)=N1	20	0	7	-2%	2.4	1%
52	O=C(CSCc1c(Cl)cccc1Cl)NCc1ccccn1	-15	-3	-1	-7%[15.4 µM]	-5.1	-8%
53	Clc1ccc2c(N/N=C/c3ccc(Br)cc3)ccnc2c1	-8	5	7	25%	1.9	6%
54	CN(C(=O)CCCN1C(=O)c2cccc3cccc(c23)C1=O)c1ccccc1	-3	4	-4	29%[15.4 µM]	2.3	0%
55	CC(=O)NC1=NN(C(C)=O)C(c2ccccc2)S1 (stereo not drawn)	1	6	-2	4%[15.4 µM]	0.3	2%
56	Cc1csc(NS(=O)(=O)c2ccc(Cl)cc2)n1	1	3	·	-12%	5.8	4%
57	O=C(Nc1ccc2oc(=O)c(C(=O)O)cc2c1)Oc1ccccc1	-2	-20	-20	9%	-1.5	11%
58	CCc1ccc(CNC(=O)CCc2nnc(CCc3ccc(OC)cc3)o2)nc1	-7	-1	·	-28%	-5.2	3%
59	Cc1cc(C[n+]2ccccc2)c2nsnc2c1	-3	2	10	-7%	-1.7	1%
60	CN(Cc1ccccc1)C(=O)c1nc[nH]c1C(=O)N1CCN(C(=O)OC(C)(C)C)CC1	-9	4	1	·	-0.1	4%
61	CC1CCCN(CC(O)CN2CCN(CC(O)CN3CCCC(C)C3)C(C)C2)C1 (stereo not drawn)	-6	-1	6	16%	-3.9	10%
62	COc1ccc(S(=O)(=O)N(CC(=O)NCc2ccccn2)Cc2ccccc2)cc1	-4	3	0	-1%	4.0	5%
63	O=C(NC1CCC(O)CC1)c1ccc(S(=O)(=O)NCc2ccco2)cc1 (stereo not drawn)	19	7	2	-48%[inhibitor]	-2.1	0%
64	C#CCOCCOCCOCCNc1nc(N2CCN(C(=O)Cn3cc(CCCN=C(N)N)nn3)CC2)nc(N2CCN(C(=O)[C@H]([C@@H](C)O)n3cc(CCCCN)nn3)CC2)n1	-26	4	3	·	-2.2	7%
65	CCN(C(=O)COC(=O)c1c(-c2ccccc2)noc1C)C1CCS(=O)(=O)C1 (stereo not drawn)	-12	6	-1	-51%[inhibitor]	0.1	1%
66	CCC(C)(C)NC(=O)CSc1nc(Cc2ccccc2)nc2ccccc12	-4	5	11	?	-4.4	-9%
67	COc1ccc(C(=O)N2CCN(c3ccccc3OC)CC2)cc1	-2	2	0	-17%	-4.1	-5%
68	Cc1nc2ccccc2c2c1C(=O)N(C)C2=O	-4	-2	43	?	-1.3	8%
69	N#Cc1cnc(NCc2ccc(Cl)cc2Cl)nc1	-2	0	·	-1%	3.0	5%
70	CCc1cccc(CC)c1NC(=S)N1CCn2cccc2C1c1cccnc1 (stereo not drawn)	-17	-21	-9	?	-0.7	-9%
